Marburg entry inh = blocks Marburg virus binding to or entry into cells. Marburg virus pseudotyped entry inhibition, cell reporter; control for the full effect not named in the record; about a third of the inactives were read at about 46 µM. Potency, µM (top dose mostly 37.8 µM), for inactives: top-dose activity change, negative = inhibition, actives largely listed as inhibitors. 300,000 compounds, 1.8% hits. AID 540276; active = well fitted inhibition curve with a large enough effect; inconclusive = small, poorly fitted or top-dose-only effect, or effect the other way; inactive = flat fitted curve, though single readings scatter; tested in HEK293 cells; about a fifth of its hits are not listed in these tables; also: % is scaled to controls: 0 for no effect and ±100 for the full control effect; luciferase read-out
Cruzain inh noDet = blocks cruzain activity in detergent-free assay; P25779; purified cruzain, Z-FR-AMC fluorescence, no detergent; Potency, µM, for inactives: max response, negative = inhibition, usual class: inhibitors; 200,000 compounds, 2.3% hits; active = well fitted curve in the direction sought with a large enough effect; inconclusive = small, poorly fitted or top-dose-only effect, or another doubt; inactive = no such curve, though single readings can be large; an effect the other way counts as inactive or inconclusive;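 also: plate controls were enzyme without inhibitor for no effect and buffer without enzyme for full effect; nearly all actives have a fitted effect of over 40% in size; top concentration of the series not given in the record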
Target sequence (P25779 123-467 limits assumed): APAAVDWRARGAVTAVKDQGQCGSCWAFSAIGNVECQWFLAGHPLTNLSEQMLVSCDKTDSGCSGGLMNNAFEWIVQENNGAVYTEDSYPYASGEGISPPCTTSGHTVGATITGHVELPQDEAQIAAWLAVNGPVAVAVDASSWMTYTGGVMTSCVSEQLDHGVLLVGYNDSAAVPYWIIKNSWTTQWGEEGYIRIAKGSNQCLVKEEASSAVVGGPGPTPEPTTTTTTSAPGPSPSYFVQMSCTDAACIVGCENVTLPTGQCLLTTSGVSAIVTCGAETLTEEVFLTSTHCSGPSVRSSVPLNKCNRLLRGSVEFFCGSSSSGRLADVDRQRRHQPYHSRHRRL
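Detergent-free condition (0.00005% Triton X-100) in acetate buffer pH 5.5 with DTT. 1.5 nM enzyme and compound were pre-mixed 15 min, then 2 uM Z-FR-AMC substrate added; reaction progress from fluorescence change between first and third reads (60 s).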
NS1 function inh = inhibitors of influenza NS1 protein function; S. cerevisiae slowed by influenza A NS1, growth recovery by OD600; Potency, µM (highest dose often 46.1 µM), inactives show at the top dose activity, positive = more growth; 270,000 compounds, 0.4% hits; also: actives are rising curves; nearly all actives have a fitted effect of over 50% in size
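S. cerevisiae expressing influenza A NS1, grown in glucose, washed, then diluted 1:100 into pH 6.0 -URA galactose medium with 23 nl compound. Growth recovery read as OD600; NS1-free strain serves as control.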
Cruzain Triton = cruzain (T. cruzi) inhibition with detergent; P25779; purified cruzain, Z-FR-AMC fluorescence, 0.01% Triton; Potency, µM, without a hit: max response, negative = inhibition, actives largely listed as inhibitors; 200,000 compounds, 0.43% hits; AID 1478; active = well fitted curve in the direction sought with a large enough effect; inconclusive = small, poorly fitted or top-dose-only effect, or another doubt; inactive = no such curve, though single readings can be large; an effect the other way counts as inactive or inconclusive;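 also: plate controls were neutral wells for no effect and buffer without enzyme for full effect; nearly all actives have a fitted effect of over 40% in size; top concentration of the series not given in the record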
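Detergent-containing run (0.01% Triton X-100) in acetate buffer pH 5.5 with 5 mM DTT: enzyme at 1.5 nM final, 15 min compound preincubation at room temperature, then 2 uM Z-FR-AMC substrate. Activity taken as 60 s fluorescence increase at 360/450 nm.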
2A StopGo = FMDV 2A StopGo reporter, luciferase signal; human cells with a luciferase reporter of 2A StopGo recoding; control for the full effect not named in the record; Potency, µM (highest dose often 57.9 µM), inactives show at the highest dose signal change, negative = less light; AID 1159524; 410,000 compounds, 1.2% hits; active = well fitted falling curve with a large enough effect; inconclusive = small, poorly fitted or top-dose-only effect; inactive = no such curve, though single readings can be large or run the other way; tested in HEK293T cells; also: % is scaled to controls: 0 for no effect and ±100 for the full control effect; nearly all actives have a fitted effect of over 45% in size; luciferase light after 4 h
SARS PLP yeast = inhibitors of SARS-CoV papain-like protease in yeast; S. cerevisiae expressing SARS-CoV PLpro, growth rescue; control for the full effect not named in the record; 330,000 compounds, 0.19% hits; Potency, µM (doses to about 32.9 µM), for inactives: at the highest dose activity, positive = growth rescue; also: 0% is about no effect; nearly all actives have a fitted effect of over 55% in size; growth read by luminescence after 48 h
RE007 growth inh = less growth of the S. pombe RE007 Vpr strain. S. pombe RE007 Vpr strain, BacTiter-Glo ATP luminescence, 24 h; control for the full effect not named in the record. Potency, µM (series often up to 92.2 µM), inactives show at the highest dose activity change, negative = less growth. 360,000 compounds, 0.21% hits. AID 651644; active = well fitted falling curve with a large enough effect; inconclusive = small, poorly fitted or top-dose-only effect; inactive = no such curve, though single readings can be large or run the other way;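 also: % is scaled to controls: 0 for no effect and ±100 for the full control effect; nearly all actives have a fitted effect of over 50% in size; the assay follows cell death caused by Vpr and the record does not say whether a fall means rescue or toxicity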
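Fission yeast RE007 carrying one integrated HIV-1 vpr copy, seeded at OD 0.01 in PMG+AL medium with 23 nL pinned compound. Grown 24 h at 30 degrees; viability read by BacTiter-Glo luminescence after 5 min.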
Lassa entry inh = blocks Lassa virus binding to or entry into cells. Lassa virus pseudotype entry inhibition, cell reporter; control for the full effect not named in the record. Potency, µM (highest dose often 37.9 µM), for inactives: top-dose activity change, negative = inhibition, hits mostly inhibitors. 300,000 compounds, 1.2% hits. AID 540256; active means well fitted inhibition curve with a large enough effect; inconclusive means small, poorly fitted or top-dose-only effect, or effect the other way; inactive means flat fitted curve, though single readings scatter; tested in HEK293 cells; also: % is scaled to controls: 0 for no effect and ±100 for the full control effect; nearly all actives have a fitted effect of over 50% in size; luciferase read-out
Numbers without * were called inactive; ? = inconclusive; . = no result given; & = joins results of further samples; [ ] = remark or other dose. Unless noted, calls follow the shape of the dose curve; as a rule, active means well fitted rising curve with a large enough effect; inconclusive means small, poorly fitted or top-dose-only effect; inactive means no such curve, though single readings can be large or run the other way. Potency is read from the fitted curve at half-maximal effect.

The line under a structure holds: SARS PLP yeast	NS1 function inh	RE007 growth inh	Marburg entry inh	Cruzain inh noDet	Lassa entry inh	Cruzain Triton	2A StopGo
1. COC(=O)c1ccc(NC(=O)c2ccccc2CC[N+](=O)[O-])cc1
→ -1%	.	5%	3%[46.1 µM]	.	-4%	.	24%
2. COc1cccc(NS(=O)(=O)c2ccc(OC)c(OC)c2)c1
→ 7%	-9%	4%	-10%	8%	9%	0.7%	61%[activator]
3. Cc1c(NC(=O)c2cnn3c(C(F)(F)F)cc(-c4ccco4)nc23)c(=O)n(-c2ccccc2)n1C
→ 9%	1%	4%	-14%	-9%	-11%	-2.9%	?
4. COc1cccc(OC)c1C(=O)Nc1cccc(-c2ccc3nncn3n2)c1
→ -3%	.	3%	-8%[46.1 µM]	.	-24%[46.1 µM]	.	-8%
5. CSCCC(NS(=O)(=O)c1ccccc1F)C(=O)NC(C)c1ccccc1 (stereo not drawn)
→ -1%	.	2%	-9%[46.1 µM]	.	-20%	.	7%
6. CC(C)C(OC(=O)CN1C(=O)COc2ccccc21)C(=O)NC1CCCCC1 (stereo not drawn)
→ -2%	6%	0%	-27%[46.1 µM]	.	.	.	-21%
7. CCCOC(=O)C(=O)NNc1ccccc1
→ -7%	.	141%	?	.	-13%	.	12%
8. COC(=O)c1c(C(=O)OC)c(-c2ccccc2)n2c1CS(=O)(=O)C2
→ 5%	-7%	7%	-8%	-2%	-4%	0.3%	2%
9. O=C(NNC1CC(=O)N(c2ccc(Br)cc2)C1=O)c1ccccn1 (stereo not drawn)
→ -1%	.	6%	-2%[46.1 µM]	.	6%[46.1 µM]	.	-4%
10. COc1ccc(Cn2c(=O)c3oc4ccccc4c3n(CC(=O)Nc3cc(C)cc(C)c3)c2=O)cc1
→ .	.	.	.	-16%	?	-0.9%	-9%
11. Cc1cc(-n2c(C)cc(C(=O)CSc3nnc4sc5ccccc5n34)c2C)no1
→ 5%	-8%	-9%	-8%	-1%	3%	-0.5%	.
12. CCOC1(c2ccccc2)CC1C(=O)N/N=C/c1cccc([N+](=O)[O-])c1 (stereo not drawn)
→ 0%	-3%	-4%	.	.	.	.	?
13. CCCCCOC(=O)C1=C(C)N(C)C(=O)NC1c1cc(Br)c(O)c(OC)c1 (stereo not drawn)
→ -1%	-7%	8%	-30%	?	-1%	-16%	?
14. CCSc1nc(=S)n(CC)c(C)c1C(C)=O
→ .	?	1%	5%	-10%	-3%	-2.3%	-6%
15. CN1CCN(C(=O)CCCN2C(=O)/C(=C/c3cccc(Br)c3)SC2=S)CC1
→ -4%	11%	0%	10µM*	.	?	.	-7%
16. COc1ccc(C(=O)OCC(=O)Nc2sccc2C(N)=O)cc1OC
→ 0%	2%	-4%	5%[46.1 µM]	.	-5%[46.1 µM]	.	?
17. C/C(N)=C(/C#N)C(=O)CSc1nc2scc(-c3ccc(F)cc3)c2c(=O)n1C
→ -1%	2%	-1%	.	.	.	.	?
18. O=C(Nc1ccc(Br)cc1)c1ccc(N2C(=O)C3CC=CCC3C2=O)cc1 (stereo not drawn)
→ -1%	-4%	2%	?	?	-5%	-4.9%	-21%
19. COc1ccc(S(=O)(=O)N2CCCCC2)cc1NC(=O)c1ccco1
→ 3%	2%	-10%	19%	.	1%	.	-15%
20. O=C(Nc1nc2ccc([N+](=O)[O-])cc2s1)c1ccc(S(=O)(=O)N2CCCc3ccccc32)cc1
→ -2%	0%	34%	?	.	13µM*	.	?
21. COC(=O)c1c(NC(C)=O)sc(Cc2ccccc2)c1C
→ -19%	-64%	-9%	-18%	13%	-13%	-3.9%	-4%
22. CCn1nnc(NC(=O)Cc2ccc(Cl)cc2)n1
→ 1%	-3%	6%	-2%	.	?	.	-8%
23. CN1C(=O)SC(Nc2ccccc2C(=O)O)C1=O (stereo not drawn)
→ 4%	-7%	16%	3%	4%	5%	-0.3%	-21%
24. CC1CCCN(C(=O)CNC(=O)c2sc3ccccc3c2Cl)C1 (stereo not drawn)
→ 0%	.	-28%	0%	.	2%	.	3%
25. O=C(c1ccc2c3c(cccc13)CC2)C1CCCN(C(=O)c2ccc(=O)[nH]c2)C1 (stereo not drawn)
→ 0%	-4%	-4%	9%[46.1 µM]	.	?	.	-13%
26. S=c1[nH]nc(COc2ccccc2)n1-c1ccccc1
→ 0%	.	3%	16%[46.1 µM]	.	6%	.	-10%
27. COc1ccc2oc(C(=O)NN3C(C)CCCC3C)c(C)c2c1 (stereo not drawn)
→ -1%	.	2%	-7%[46.1 µM]	.	.	.	9%
28. CSc1ncc(CN2CCCC(C(=O)Nc3ccc(-c4ccco4)cc3)C2)cn1 (stereo not drawn)
→ -3%	-3%	-1%	.	.	.	.	-13%
29. CC1CCN(C(C(=O)NC2CCCCC2)c2cc3c(cc2[N+](=O)[O-])OCO3)CC1 (stereo not drawn)
→ -42%	-16%	8%	7%	3%	3%	-6.0%	-18%
30. Cc1cc(C(F)(F)F)nc(SCC(=O)Nc2cc(C)on2)n1
→ -1%	-3%	24%	-23%	-16%	-12%	5.1%	-2%
31. COc1ccccc1CN1C(=O)C(=O)c2cccc(C)c21
→ .	.	.	10%[46.1 µM]	-2%	27%[46.1 µM]	-2.0%	-7%
32. COc1ccc(NS(=O)(=O)c2ccc3c(c2)N(C(C)=O)CCO3)cc1
→ 3%	-9%	14%	.	.	.	.	13%
33. COC(=O)c1ccc(NCC(=O)c2ccccc2)cc1
→ 7%	-23%	-12%	?	1%	18%	0.3%	14%
34. CCCCCCN(C(=O)CCCCCN1C(=O)NC(c2ccc(Cl)cc2)C(C(=O)OCc2ccccc2)=C1C)C(C(=O)NCCCC)c1ccc(OCC(=O)OC)c(C(=O)OC)c1 (stereo not drawn)
→ -12%	13%	.	-9%&-9%	?	1%	-0.5%&0.3%	.
35. CCCCn1c(N)c(N(CCOC)C(=O)c2cccc(S(=O)(=O)N(CC)c3ccccc3)c2)c(=O)[nH]c1=O
→ 3%	.	-10%	?	.	-13%	.	-21%
36. COCCN1C(=O)c2oc3cc(C)c(C)cc3c(=O)c2C1c1ccc(O)cc1 (stereo not drawn)
→ .	.	-12%	6%	.	15%	.	7%
37. COc1ccc2nc(N(Cc3cccnc3)C(C)=O)sc2c1
→ .	.	.	.	5%	14%[46.1 µM]	-0.4%	1%
38. Cc1sc2nc(CSCC(=O)NC3CCCCC3)[nH]c(=O)c2c1C
→ 0%	.	11%	10%	.	-3%	.	-27%
39. COc1ccc(Cl)cc1NC(=O)CSc1nc2sccc2c(=O)[nH]1
→ 1%	.	41%	5%[46.1 µM]	.	0%[46.1 µM]	.	-5%
40. Brc1cccc(CNCCc2ccc3c(c2)OCO3)c1
→ 7%	0%	-3%	.	.	.	.	35%[activator]
41. Cc1cc2nn(-c3ccc(F)cc3)nc2cc1NC(=O)c1cc(Cl)ccc1Cl
→ .	.	.	?	6%	12%[46.1 µM]	-0.1%	30%
42. Cc1ccc(NC(=O)NC2CCCCC2)cc1Cl
→ 3%	-8%	10%	-3%	5%	?	5.1%	67%[activator]
43. CS(=O)(=O)N1CCc2cc(-c3csc(NCC4CCCO4)n3)ccc21 (stereo not drawn)
→ 2%	17%	6%	-3%	-6%	-1%	-2.6%	.
44. CC/C(=N/Nc1cccc(Cl)c1)c1cnnc(SC)n1
→ 20%	9%	6%	3%	?	?	-17%	-23%
45. O=C(O)C(Cc1ccccc1)N1CCS(=O)(=O)CC1 (stereo not drawn)
→ 2%	.	-6%	19%[46.1 µM]	.	-11%	.	-3%
46. O=C(/C=C/c1cccc(Oc2ccccc2)c1)N1CCOCC1
→ 0%	0%	-19%	.	.	.	.	76%[activator]
47. CCc1cc2c(NC(Cc3ccccc3)C(=O)O)nc(C)nc2s1 (stereo not drawn)
→ -6%	-9%	12%	.	.	.	.	-1%
48. COc1ccc(C(=O)N(C(C)C)C(C)C)c(OC)c1
→ -7%	-84%	-9%	-2%[46.1 µM]	1%	13%	-0.1%	10%
49. Cc1ccccc1CNC(=O)Cc1ccc(NC(=O)N2CCCCc3ccccc32)cc1
→ .	.	.	.	0%	?	-6.4%	1%
50. O=C(NC(=S)Nc1cccc([N+](=O)[O-])c1)c1ccccc1
→ -2%	-3%	-12%	.	.	.	.	46%[activator]

The listing continues.
The line under a structure holds: SARS PLP yeast	NS1 function inh	RE007 growth inh	Marburg entry inh	Cruzain inh noDet	Lassa entry inh	Cruzain Triton	2A StopGo
51. O=C(CNCCCO)Nc1cc(C(F)(F)F)cc(NC(=O)CNCCCO)c1Cl
→ ?	15%	-4%	?	5%	-1%	0.4%	-1%
52. CC(C)C(=O)NC(NC(=O)C(C)C)c1ccc([N+](=O)[O-])cc1
→ 13%	8%	8%	?	-10%	-4%	-1.7%	-16%
53. COC(=O)c1c(NC(=O)C(=O)NCC2CCCO2)sc2c1CC(C)(C)OC2 (stereo not drawn)
→ 2%	-13%	13%	.	.	.	.	?
54. COc1ccc(Cl)cc1NC(=O)C(C)Sc1nncn1C (stereo not drawn)
→ -4%	0%	-3%	4%[46.1 µM]	5%	5%	5.8%	3%
55. O=C(COc1ccc(F)cc1)Nc1cc(Cl)ccc1-n1cncn1
→ -4%	.	9%	32%	.	22%	.	16%
56. CC(=O)NC1(c2cccc(F)c2)CCN(C(=O)Nc2ccc(C#N)cc2)CC1
→ -9%	-5%	20%	1%	1%	0%	1.4%	-18%
57. Cc1cc(C(=O)Nc2cc(C(F)(F)F)ccc2N2CCOCC2)no1
→ ?	-12%	-12%	-15%	.	1%	.	-14%
58. COc1cc(NS(=O)(=O)c2cc3c(cc2C)NC(=O)CO3)cc(OC)c1
→ 4%	-7%	0%	.	.	.	.	31%[activator]
59. Cc1ccc([N+](=O)[O-])cc1NC(=S)NC(=O)c1cccnc1
→ -1%	.	16%	?	.	?	.	?
60. CCN1C(=O)C(=C/C=C/c2ccco2)C(=O)N(CC)C1=S
→ ?	3%	-17%	13%[46.1 µM]	29%	11%[46.1 µM]	?	?

Source: PubChem (National Center for Advancing Translational Sciences (NCATS))
